Screening results deposited in PubChem BioAssay by Fisher Drug Discovery Resource Center.
NPYLR7 ag: activates Aedes aegypti NPYLR7 receptor; activation, % at 10 µM; 0.15% of 270,000 active; AID 1259423; HEK293T NPYLR7/Galpha15, GCaMP6s calcium fluorescence; in the data active = activation above about 40%;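 note: 0% = vehicle and 100% = reference agonist at the receptor; some compounds past the cut are filed as inactive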
NPYLR7 ag max-min: second read-out of NPYLR7 ag, no call of its own (marks repeat the call); activation, %; measured here: Max-Min RFU normalised activation; some inactives read as strong as hits;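 span of the calcium signal over five minutes; 0% = vehicle and 100% = native peptide agonist; compound fluorescence can raise it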
* hit, by the source's call. These rows are one share of the data (hit frequency here may not be typical).

Below each compound: NPYLR7 ag, NPYLR7 ag max-min
- Nc1ccc(CCNc2ncnc3c2ncn3C2OC(CO)C(O)C2O)cc1 (stereo unspecified)
 : 9, -20
- O=C(NCCCN1CCCC1=O)C(C1CCCC1)N1CCN(C(=O)c2cccs2)CC1 (stereo unspecified)
 : -7, -7
- CCOc1ccc2oc(C(=O)NC(C)(C)CC)c(C)c2c1
 : 2, 2
- CN=c1scc(-c2cccc(Br)c2)n1N=Cc1ccccc1F
 : 4, 5
- CC1CCCN1C(=O)c1ccc(-c2ccc(F)cc2)s1 (stereo unspecified)
 : 3, 18
- CC1CN(C(=O)C2(C)CC2(Br)Br)CC(C)O1 (stereo unspecified)
 : -4, -4
- CCn1c(CC2CCN(C3CCN(S(C)(=O)=O)CC3)CC2)n[nH]c1=O
 : -1, -3
- Cc1nc(-c2ccc3c(c2)CCN3CC(=O)Nc2cc([N+](=O)[O-])ccc2C)cs1
 : 0, 4
- Cc1ccccc1CSc1ccc(-c2ccc(-n3ccnc3)cc2)nn1
 : -13, -15
- CCC(C)(C)NC(=O)COc1ccc(NC(=O)c2cnn(C)c2)cc1
 : 5, 3
- O=C(NCc1ccccc1)C1CCN(C(=O)c2cccc(NC(=O)C3CCCO3)c2)CC1 (stereo unspecified)
 : 0, -1
- COc1ccc(NC(=O)C2CC(=O)N(N(C)c3ccccc3)C2)cc1 (stereo unspecified)
 : -3, -11
- CCc1c(C)nn(-c2ccc(C(=O)NCc3ccncc3)cc2)c1C
 : 2, -5
- COc1ccc(N2CCN(c3cc(C(=O)NC/C=C(\C)CCC=C(C)C)c4ccccc4n3)CC2)cc1
 : 28, 37
- Cc1cc2c(c(=O)o1)C(c1cccc([N+](=O)[O-])c1)C(C#N)C(=N)O2 (stereo unspecified)
 : -5, -9
- CC(C)c1nn(-c2ccc(Cl)cc2)c(C(C)C)c1C(=O)NCc1cccnc1
 : 5, 12
- CCN(C(=O)Nc1ccccc1)C(C)c1cccc(OC)c1 (stereo unspecified)
 : 4, 2
- Cc1ccccc1C(=O)N1CCN(c2ccc(Cl)cc2C)C(=O)C1C (stereo unspecified)
 : -12, -7
- CC(NC1CCN(C(=O)c2cccnc2)CC1)c1ccccc1Cl (stereo unspecified)
 : 15, 3
- CCC(=O)N1CCN(c2cc(Cl)nc(SCC(=O)N3CCN(c4ccccc4OC)CC3)n2)CC1
 : -2, 1

Below each compound: NPYLR7 ag, NPYLR7 ag max-min
- CC1=NC2=C(C(=O)CCC2)C(c2cccs2)C1C(=O)OCCc1ccccc1 (stereo unspecified)
 : 2, 1
- CCCCN(C=O)c1c(CC)nc2c(OCCOc3ccccc3)cccn12
 : 4, 9
- COc1ccc(CCNC(=O)Nc2nn(Cc3ccc(C(F)(F)F)cc3)c3ccccc23)cc1
 : 18, 15
- CC(C)OC(=O)COc1cc(OCC(=O)OC(C)C)c2c(c1)oc(=O)c1ccccc12
 : 1, 0
- CN(C)c1nc(N)nc(CN2CCC3(CCCCC3)C2)n1
 : 3, 1
- Clc1ccc2nc(CCc3ccccc3)c(NCc3ccccc3)n2c1
 : 2, 9
- O=C(OCc1cc(-c2cc3ccccc3o2)on1)c1ccco1
 : -2, 1
- CC(C)Oc1ccc(CNC(=O)c2ccco2)cc1F
 : -3, -4
- CCCS(=O)(=O)N1CCC(c2nc(-c3ccc4c(c3)OCO4)no2)CC1
 : 18, 10
- O=C(O)c1cscc1Sc1ccc(C(F)(F)F)cn1
 : -2, -5
- N#Cc1ccc(C(=O)N2CCCCC2c2cc(C(=O)Nc3ccccc3Cl)no2)cc1 (stereo unspecified)
 : 4, -1
- CCCCCCn1c(N/N=C\c2ccc(O)cc2O)nc2c1c(=O)[nH]c(=O)n2C
 : 2, 7
- CSc1nc(C(=O)NC(C)c2cnn(-c3cccc(F)c3)c2C)cs1 (stereo unspecified)
 : 2, -2
- CC(C)(CNc1ncnc2sc3c(c12)CCCCC3)N1CCOCC1
 : 0, 14
- COCCn1c(=S)[nH]c2ccccc21
 : 2, 1
- COc1ccc(NC2CCCN(C(=O)c3ccccc3-c3ccccc3C)C2)cc1OC (stereo unspecified)
 : 18, 7
- O=C(CN1CCCC1=O)Nc1ccc(C23CC4CC(CC(C4)C2)C3)cc1
 : 0, -1
- CCN1CCCC1CNC(=O)CCC1CCN(Cc2c(F)cccc2Cl)CC1 (stereo unspecified)
 : 4, 1
- COCCCNC(=O)c1cc(N2CCN(c3ccc(OC)cc3)CC2)nc2ccccc12
 : 3, 6
- COC(=O)N1CCN(CC(O)c2ccc(Br)cc2)CC1 (stereo unspecified)
 : -1, -1

Gathered by group: those above with fluorine
Below each compound: NPYLR7 ag, NPYLR7 ag max-min
- CN=c1scc(-c2cccc(Br)c2)n1N=Cc1ccccc1F
 : 4, 5
- CC1CCCN1C(=O)c1ccc(-c2ccc(F)cc2)s1 (stereo unspecified)
 : 3, 18
- COc1ccc(CCNC(=O)Nc2nn(Cc3ccc(C(F)(F)F)cc3)c3ccccc23)cc1
 : 18, 15
- CC(C)Oc1ccc(CNC(=O)c2ccco2)cc1F
 : -3, -4
- O=C(O)c1cscc1Sc1ccc(C(F)(F)F)cn1
 : -2, -5
- CSc1nc(C(=O)NC(C)c2cnn(-c3cccc(F)c3)c2C)cs1 (stereo unspecified)
 : 2, -2
- CCN1CCCC1CNC(=O)CCC1CCN(Cc2c(F)cccc2Cl)CC1 (stereo unspecified)
 : 4, 1

More entries.
Below each compound: NPYLR7 ag, NPYLR7 ag max-min
- O=c1c2c(nc3nc(NCc4cccs4)[nH]n13)CCC2
 : 8, 3
- CCOC(=O)N1CCN(Cc2ccc3c(c2)CN(C(=O)c2cccs2)CCO3)CC1
 : 3, 1
- C=C(C)Cn1c(N2CCN(CC(=O)OC)CC2)nc2c1c(=O)[nH]c(=O)n2C
 : 4, 0
- CC1Cc2ccccc2N1S(=O)(=O)c1cnc[nH]1 (stereo unspecified)
 : 16, 11
- COc1cc(/C=N\Nc2ncnc3nc[nH]c23)cc(OC)c1OC
 : -1, -4
- NC(=O)CSc1nc2c(c(=O)n1Cc1ccccc1)SCC2
 : 5, -7
- Cc1ccc(-c2nnc(CN(C)CCC(O)c3ccccc3)o2)cc1 (stereo unspecified)
 : 1, 18
- Nc1ccc2c(c1N)C(=O)c1ccccc1C2=O
 : -3, 12
- Cn1c(=O)oc2c(C(=O)O)cccc21
 : -1, -2
- Cc1ccoc1C(=O)N(Cc1ccsc1)CC1CCCO1 (stereo unspecified)
 : 0, 0
- O=C(c1cc2c(s1)CCC2)N1CCN(S(=O)(=O)c2cccc(F)c2)CC1
 : 7, 5
- COc1ccccc1-c1cc(C(=O)NCCc2ccc(Cl)cc2Cl)nc2cc(-c3ccccc3)nn12
 : -17, -8
- COc1ccc(N2C(=O)/C(=C\c3cn(C(C)=O)c4ccccc34)C(=O)NC2=S)cc1
 : -2, -5
- Cc1cc(C(=O)N(CC(=O)OC(C)(C)C)c2ccc3c(c2)OCO3)c(C)o1
 : 0, 1
- CCN(CC)C(=O)CCN1C(=O)C2C3C=CC(C3)C2C1=O (stereo unspecified)
 : -8, -12
- O=C(CSc1nc2ccccc2c(=O)n1-c1cccc(Cl)c1)N1CCCCC1
 : 13, 12
- C=CCCC(=O)N1CCC2(CC1)[C@H](C(=O)OCC)[C@@H](O)C(=O)N2Cc1ccccc1
 : 20, 31
- C=CCn1c(-c2snnc2-c2ccccc2)n[nH]c1=S
 : -6, -10
- O=S(=O)(c1ccc(Br)s1)N1CCC2(CC1)OCCO2
 : 2, -2
- COc1ccc(C(=O)N2CCN(C(C(=O)NC3CCCc4ccccc43)C3CCCC3)CC2)cc1 (stereo unspecified)
 : -9, -7

Below each compound: NPYLR7 ag, NPYLR7 ag max-min
- NCC1CCN(Cc2cnc(-c3cccc4ccccc34)nc2)C1 (stereo unspecified)
 : 5, 3
- COc1cccc(Cn2c(-c3sccc3C)n[nH]c2=O)c1
 : -7, -7
- CCOC(=O)C1CCN(C(=O)c2cccc(CSc3nc(C)cc(N4CCN(c5ccccc5F)CC4)n3)c2)CC1
 : 4, 19
- CCOC(=O)CCC(=O)N1CCN(c2c(CCC(=O)OCC)c(C)nc3ncnn23)CC1
 : 27, 14
- COC(=O)C1=C(C)N(C)C(=O)NC1c1ccc(F)cc1 (stereo unspecified)
 : -3, -9
- C=C(C)CNC(=O)c1cncn1-c1cccc(-c2cccc3c2sc2ccccc23)c1
 : 3, -4
- COc1ccc(C(=O)N(Cc2cccc(C)c2)[C@@H]2CCCCC2NC(=O)[C@H]2CCCN2C(=O)C(C)(C)CCl)cc1 (stereo partly specified)
 : -1, 8
- Cc1noc(C(C)N2CCC(NC(=O)c3cc(C)oc3C)CC2)n1 (stereo unspecified)
 : 2, -2
- COC(=O)CCCCC(=O)N1CCN(c2nc3nccc(-c4cccnc4)n3n2)CC1
 : 2, 3
- Cc1ccccc1NCN1C(=O)C2C3C=CC(C3)C2C1=O (stereo unspecified)
 : -9, -14
- CCCCCCCCCCCC(=O)N1CCN(C(=O)c2cc(-c3ccccc3)n(-c3cccc(OC)c3)c2C)CC1
 : 20, 17
- CCCCCCNC(=O)CN(Cc1ccccc1)c1nc(Cc2cccc(OC)c2)ns1
 : -9, -8
- O=C(/C=C/C(=O)OCC(F)(F)C(F)F)Nc1cccc2ccccc12
 : -16, -20
- COc1ncc(CN2C[C@H](N)C[C@H]2C(=O)NC(C)C)cn1
 : -1, 4
- COc1ccc(N2CCC(NC(c3nccn3C)C(C)C)CC2)cc1 (stereo unspecified)
 : 20, 11
- CCc1cc(N2CCN(c3ccccc3F)CC2)nc(SCc2cccc(C(=O)NCc3ccncc3)c2)n1
 : 13, 12
- COc1ccc(C(=O)N2CCN(c3ccc(-n4cccn4)nn3)CC2)cc1
 : 9, 7
- CCOc1ccccc1/C=C1N=C(/C=C\c2cccc([N+](=O)[O-])c2)OC/1=O
 : 28, 24
- O=C(NC1CCCCCCC1)C1CCC(CNc2c(N3CCCCC3)c(=O)c2=O)CC1 (stereo unspecified)
 : 8, 6
- COc1cccc(C(=O)N(Cc2ccc(OS(C)(=O)=O)cc2)C(C)C)c1
 : -4, -3

Below each compound: NPYLR7 ag, NPYLR7 ag max-min
- C=CCn1c(NCCCOCC)nc2c1c(=O)[nH]c(=O)n2C
 : -4, -9
- O=C(Nc1nnc(-c2ccc(F)cc2)s1)c1cccs1
 : 9, 9
- O=C(Nc1ccc(OCC2CCCO2)cc1)c1n[nH]c2ccccc12 (stereo unspecified)
 : 6, 5
- Cc1nc(C(C)n2ccnc2-c2c(C)n(C)n(-c3ccccc3)c2=O)cs1 (stereo unspecified)
 : -2, -8
- Cc1ccc(CN2CCC(CN(C)C3CCOCC3)CC2)o1
 : 5, 2
- CC(=O)CC1(O)C(=O)N(Cc2ccc(OC(C)C)cc2)c2ccc(C)cc21 (stereo unspecified)
 : -7, -10
- COc1ccc(NC(=O)Cn2cc(OC)c(=O)cc2CN2CCN(c3ccccc3)CC2)c(OC)c1
 : -2, -4
- CC1CN(c2ncnc3c2CCCCC3)CC(C)(C)O1 (stereo unspecified)
 : -3, -6
- CC(C)(C)c1ccc(COc2coc(CN3CCCN(C(=O)C(F)(F)C(F)(F)C(F)(F)F)CC3)cc2=O)cc1
 : 4, 18
- O=S1(=O)[C@@H](c2ccccc2)[C@H](CO)CN1c1ccccc1
 : 2, 7
- CCOc1ccc(-c2cn3c(CC(=O)N4CCc5ccccc54)csc3n2)cc1
 : 1, 0
- O=C(Cn1nc(-c2ccccc2)c2sc(N3CCOCC3)nc2c1=O)N1CCc2ccccc21
 : -4, -8
- CSc1ncc(CN2CCCC2c2nc(C(C)C)no2)cn1 (stereo unspecified)
 : 6, -6
- CCCCn1c(=O)[nH]c(=O)c2c1nc(CSc1ncn[nH]1)n2CC
 : 3, -3
- CCNC(=O)c1c(C)nn(-c2ccc(C)cc2)c1C
 : 30, 34
- Cc1nn(-c2ccc(Nc3ccc(NC(=O)c4ccc(F)cc4)cc3)nn2)c(C)c1C
 : -3, -6
- CCNS(=O)(=O)CCNC(=O)C1(Cc2ccccc2)CC1
 : 0, 0
- Cc1csc(N(C)C(=O)C2CC(=O)N(c3ccccc3Cl)C2)n1 (stereo unspecified)
 : 13, 11
- Cc1nnc(SCc2cc(=O)n3ccccc3n2)c2cc3occc3n12
 : 1, -4
- CN(Cc1cccc(C#N)c1)C(=O)Cc1ccc(NC(=O)OC(C)(C)C)cc1
 : 6, 0

Below each compound: NPYLR7 ag, NPYLR7 ag max-min
- CC(C)(NC(=O)C1CC(=O)N(c2cccc(C(F)(F)F)c2)C1)c1ccc2c(c1)OCO2 (stereo unspecified)
 : 5, 2
- O=C(c1cccc(Br)c1)N(Cc1c(-c2ccccc2)noc1N1CCCC1)C1CC1
 : 2, 1
- Cc1ccccc1Cn1ccnc1CN(C(=O)c1ccccc1F)C1CC1
 : 7, 11
- COc1ccc(N2CCCN(CCN3C(=O)NC4(CCCC4)C3=O)CC2)cc1
 : 11, 8
- C=CCCC(=O)N1CCC(n2c(=O)oc3ccc(F)cc32)CC1
 : -2, 10
- Cc1cccc(CC(C)NC(=O)c2cc(COc3ccc(F)cc3F)on2)n1 (stereo unspecified)
 : 6, 11
- CNC(=O)C(C)N(C)Cc1cc(F)ccc1-n1nc(C)cc1C (stereo unspecified)
 : -2, -4

Arranged by heavy-atom count (highest first): some entries from above
Below each compound: NPYLR7 ag, NPYLR7 ag max-min
- COc1ccccc1-c1cc(C(=O)NCCc2ccc(Cl)cc2Cl)nc2cc(-c3ccccc3)nn12
 : -17, -8
- COC(=O)CCCCC(=O)N1CCN(c2nc3nccc(-c4cccnc4)n3n2)CC1
 : 2, 3
- Cc1ccc(CN2CCC(CN(C)C3CCOCC3)CC2)o1
 : 5, 2
